miR-21 reporter: miR-21 reporter, rising signal. Potency, µM (series often up to 38.3 µM), for inactives: top-dose reporter change, positive = more light. 340,000 tested, under 10 active. AID 2288. HeLa miR-21 FLuc reporter, luciferase, 48 h; active = well fitted rising curve with a large enough effect; inconclusive = small, poorly fitted or top-dose-only effect; inactive = no such curve, though single readings can be large or run the other way;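 note: % of control where 0% means no effect; miR-21 action dims this reporter so a rising signal means less miR-21 action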
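Using DMEM plus 10% FBS, HeLa miR-21-FLuc cells are incubated with test compounds (final up to about 40uM) for 48 hours; firefly luciferase signal is then imaged following reagent-mediated lysis.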
GLA inh pH 4.5: alpha-galactosidase A (human) inhibition, pH 4.5; 230,000 tested, under 10 active; P06280; activity change, negative = inhibition, % at 105 µM; purified enzyme, 4-MU-alpha-Gal fluorescence, pH 4.5; inconclusive = small, poorly fitted or top-dose-only inhibition, or a rising curve; inactive = flat fitted curve, though single readings scatter; no compound was filed as active;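 note: 0% = full activity with enzyme and -100% = basal without enzyme; dose as in the result columns while the protocol names 77 µM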
Target sequence (P06280 whole entry, looked up): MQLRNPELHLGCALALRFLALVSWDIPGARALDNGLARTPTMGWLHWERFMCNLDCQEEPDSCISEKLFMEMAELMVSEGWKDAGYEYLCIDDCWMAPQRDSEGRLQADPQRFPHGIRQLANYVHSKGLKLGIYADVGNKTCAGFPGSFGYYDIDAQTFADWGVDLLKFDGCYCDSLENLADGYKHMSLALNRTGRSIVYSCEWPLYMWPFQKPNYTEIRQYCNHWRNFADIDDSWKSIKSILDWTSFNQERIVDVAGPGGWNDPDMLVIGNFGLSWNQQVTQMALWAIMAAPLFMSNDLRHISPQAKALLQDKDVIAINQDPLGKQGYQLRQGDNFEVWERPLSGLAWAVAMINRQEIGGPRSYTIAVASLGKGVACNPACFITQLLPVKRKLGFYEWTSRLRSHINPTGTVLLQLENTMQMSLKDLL
Rango complex inh: Rango-importin beta binding inhibition; 340,000 tested, 0.031% active; Rango CFP/YFP FRET sensor + importin beta, 45 min; Potency, µM (doses to about 92.2 µM), without a hit: top-dose inhibition of complex formation; AID 540263; Q14974; active = rising FRET ratio curve, often small or poorly fitted; inconclusive = mostly compound fluorescence or quenching in the first reads; inactive = flat curves in all reads;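 note: potency is the fitted concentration of half-maximal effect; 0% = DMSO wells and 100% = buffer wells lacking importin beta; nearly all actives have a fitted effect of over 15% in size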
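FRET biosensor Rango (snurportin 1 IBB between N-terminal EYFP and C-terminal Cerulean), 50 nM in PBS/1 mM DTT/0.02% Tween-20/0.1% BSA, preincubated 5 min RT with compound; 0.125 microM importin beta added, 45 min RT, CFP/YFP FRET ratio read.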
Rango dissoc inh: inhibition of RanGTP-driven Rango-importin beta dissociation | O95149+P62826 | 340,000 tested, 0.071% active | Potency, µM (doses to about 46.1 µM), inactives show at the highest dose activity change, negative = inhibition | Biochemical FRET Rango-importin beta, RanGTP-induced dissociation; active means falling FRET ratio curve, often poorly fitted, with flat reads before Ran was added; inconclusive means other falling curves, or compound fluorescence or quenching; inactive means flat or rising ratio curve;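 note: potency is the fitted concentration of half-maximal effect; % of control where 0% means no effect; nearly all actives have a fitted effect of over 45% in size; -100% = wells without RanGTP and RCC1; the record marks most hits as doubtful in a second field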
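Rango/importin beta premix (0.1/0.25 uM final), PBS + 1 mM DTT + 0.02% Tween-20 + 0.1% BSA; cpd 5 min RT; FRET pre-read; + RanGTP-RCC1 (0.6 uM Ran, 2 mM GTP, 0.2 uM RCC1); 45 min RT; FRET post-read, ex 430, em 486/530 nm.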
An asterisk follows results filed as active; ? = inconclusive; · = not tested or not shown; & = joins results of further samples.

GLA inh pH 4.5	miR-21 reporter	Rango complex inh	Rango dissoc inh	structure
·	0%&-5%	?	?	COc1ccc(C)cc1NC(=O)CN1C(=O)COc2ccc(S(=O)(=O)N3CCC(C)CC3)cc21
5	-7%	2.2%	-22%	CN1CCN(S(=O)(=O)c2ccc(N)cc2)CC1
-13	-8%	0.2%	1%	Cc1cccc(OCc2nnc(SCC(=O)c3ccccc3)o2)c1
·	-2%	-0.8%	-12%	CCN(CC)c1nc(C(F)(F)F)nc2c1nnn2Cc1ccccc1
-3	-8%	1.6%	-12%	Cc1ccc(C2C(=O)N(C3CCCC3)CC(=O)N2CC2COc3ccccc3O2)cc1 (stereo not given)
·	7%	1.1%	-13%	CC(=O)N1CCCc2cc(S(=O)(=O)N3CCCC(C(=O)Nc4ccccc4C)C3)ccc21 (stereo not given)
·	-1%	0.3%	2%	COc1ccccc1C(=O)NCCCNC(=O)c1cnccn1
·	·	1.3%	15%	COc1cc(CCCN2CCNC[C@@H]2Cc2ccc(O)cc2)cc(OC)c1OC
-18	1%	?	?	CCCc1cc(Nc2c(C)n(C)n(-c3ccccc3)c2=O)n2c(nc3ccccc32)c1C#N
·	·	0.8%	0%	O=C(COC(=O)c1cccc(S(=O)(=O)N2CCOCC2)c1)NCc1ccc2c(c1)OCO2
-12	-2%	-0.6%	-2%	COc1ccc(NC(=O)N(Cc2ccc(C)cc2)Cc2cccnc2)c(OC)c1
-11	-3%	-1.2%	-8%	COc1ccc(NC(=S)NC(=O)c2csnn2)cc1
-7	18%	3.3%	0%	COc1ccc(OC)c(C2=NOC(C(=O)NCc3ccco3)C2)c1 (stereo not given)
0	-33%	-2.3%	-5%	Nc1nc(OCC(F)(F)F)cc(Oc2ccccc2F)n1
-6	-3%	-1.3%	8%	O=C(Nc1ncccn1)c1cc([N+](=O)[O-])cc([N+](=O)[O-])c1
-4	-2%	-2.6%	4%	CCOc1ccccc1CN1CCN(S(C)(=O)=O)CC1
-7	-16%	0.7%	6%	Cc1ccc(S(=O)(=O)N/N=C\c2cn(-c3ccccc3)nc2-c2ccccc2)cc1
-8	-4%	·	·	O=c1[nH]c(/C=C/c2ccc(Br)cc2)nc2c1cnn2-c1ccccc1
4	-9%	0.1%	2%	Cc1sc2nc(CC(N)=O)[nH]c(=O)c2c1-c1ccccc1
·	·	-1.5%	4%	c1ccc([C@H]2CN3C(=N2)Sc2ccccc23)cc1
·	?	2.9%	8%	CN(C)S(=O)(=O)c1cccc(NC(=O)c2ccc(COc3ccccc3)cc2)c1
-19	0%	3.4%	8%	CCN(CC)C(c1ccc(C)cc1)c1nnnn1C1CCCCC1 (stereo not given)
-1	-1%	1.3%	10%	O=C(CCN1CCC(c2ccccc2)C1)c1cccs1 (stereo not given)
-1	0%	2.1%	-2%	Cc1cc(C(=O)N/N=C2\CC(=O)CC(C)(C)C2)n[nH]1
·	-2%	2.8%	0%	C[C@H](NC(=O)c1ccccc1)C(=O)N1CCC2(CC1)NCCc1[nH]cnc12
7	0%&3%	1.8%	18%	CCOC(=O)CNc1nc(Oc2ccc(=O)n(C)n2)nc(N(CC)CC)n1
·	0%	1.0%	2%	Cc1ccc(Cl)cc1N(C)C(=O)Cn1ncc2c([nH]c3ccccc32)c1=O
-7	2%	1.2%	13%	CCOc1cc(C(=O)Nc2ccc(S(=O)(=O)N3CCOCC3)cc2)cc(OCC)c1OCC
-6	-11%	1.2%	-19%	CCC(CC)NC(=O)c1oc2ccccc2c1COc1ccccc1
·	·	2.7%	6%	COc1cc(N)c(Cl)cc1C(=O)OCC(=O)NCC1CCCCC1

3 records picked at random from the list so far:
GLA inh pH 4.5	miR-21 reporter	Rango complex inh	Rango dissoc inh	structure
·	?	2.9%	8%	CN(C)S(=O)(=O)c1cccc(NC(=O)c2ccc(COc3ccccc3)cc2)c1
-1	-1%	1.3%	10%	O=C(CCN1CCC(c2ccccc2)C1)c1cccs1 (stereo not given)
-7	2%	1.2%	13%	CCOc1cc(C(=O)Nc2ccc(S(=O)(=O)N3CCOCC3)cc2)cc(OCC)c1OCC

Next section
GLA inh pH 4.5	miR-21 reporter	Rango complex inh	Rango dissoc inh	structure
·	-3%	-0.3%	9%	Cc1cc(C)n(CC(O)COc2ccc(F)cc2)n1 (stereo not given)
1	-4%	3.5%	2%	CCCC(C)C(=O)Nc1ccccc1C(=O)OCC (stereo not given)
-5	-1%	0.9%	13%	Cn1cnc(S(=O)(=O)Nc2ccccc2N2CCOCC2)c1
7	-4%	0.7%	11%	CCCn1c(C2CC(=O)N(c3ccc(C)cc3)C2)nc2ccccc21 (stereo not given)
·	·	-1.0%	1%	C=CCN1C(=O)c2ccc(C(=O)N3CCN(S(=O)(=O)c4ccccc4Br)CC3)cc2C1=O
·	-35%	5.2%	2%	Nc1ncnc2c1ncn2CCc1ccccc1
4	-17%	0.0%	1%	CC(CCc1ccccc1)NC(=O)/C=C/c1ccccc1 (stereo not given)
·	-3%	2.3%	-2%	CCn1cc(S(=O)(=O)Nc2nc3ccc(OC)cc3s2)cn1
·	-5%	?	1%	CCOCCCNC(=S)N(CCCN(C)C)Cc1cc2cc3c(cc2[nH]c1=O)OCCO3
·	·	-1.4%	34%	Cc1noc(C)c1S(=O)(=O)N(C)C[C@H]1Oc2ccc(NS(=O)(=O)c3cn(C)cn3)cc2C(=O)N([C@H](C)CO)C[C@@H]1C

4 entries from above, with values under each structure:
The line under a structure holds: GLA inh pH 4.5	miR-21 reporter	Rango complex inh	Rango dissoc inh
> Nc1nc(OCC(F)(F)F)cc(Oc2ccccc2F)n1
  0	-33%	-2.3%	-5%
> O=C(Nc1ncccn1)c1cc([N+](=O)[O-])cc([N+](=O)[O-])c1
  -6	-3%	-1.3%	8%
> CCOc1ccccc1CN1CCN(S(C)(=O)=O)CC1
  -4	-2%	-2.6%	4%
> Cc1ccc(S(=O)(=O)N/N=C\c2cn(-c3ccccc3)nc2-c2ccccc2)cc1
  -7	-16%	0.7%	6%

Carrying on:
GLA inh pH 4.5	miR-21 reporter	Rango complex inh	Rango dissoc inh	structure
-11	-14%	0.8%	-6%	CCN(CC)CCOC(=O)c1ccc(NC(=O)C(C)NC(=O)C23CC4CC(CC(C4)C2)C3)cc1 (stereo not given)
3	16%	-5.7%	25%	Cc1nc(C)c2c(=O)cc(-c3ccccc3)[nH]c2n1
-10	-11%	5.7%	-6%	CN(/N=C/c1ccncc1)C1=NS(=O)(=O)c2ccccc21
8	-24%	-1.2%	-19%	CCOC(=O)c1cc2c(nc1N)CC(C)(C)OC2
4	-3%	-0.7%	1%	O=C(CSc1nnc(CNC(=O)c2c(F)cccc2Cl)o1)Nc1ccc2c(c1)OCCO2
1	-5%	0.8%	1%	COc1ccc(NC2CC(=O)N(C)C2=O)cc1 (stereo not given)
14	-4%	-0.6%	4%	Nc1cc(N)nc(SCC(=O)NCc2ccco2)n1
-16	-3%	0.4%	0%	COc1ccc(S(=O)(=O)NC(C)C)cc1C(=O)NC1CCCCC1
1	-42%	-3.8%	0%	COc1cccc(-c2csc(NC(=O)Oc3ccccc3)n2)c1
-2	-13%	2.4%	-12%	Cc1cc(C)nc(SCC(=O)N/N=C/c2cccs2)n1
·	·	-3.0%	-3%	CCN(CC(=O)NCc1cccs1)C(=O)c1cccc(Cl)c1

Taken from above.
miR-21 reporter, COc1ccc(NC(=S)NC(=O)c2csnn2)cc1 = -3%
miR-21 reporter, CN(/N=C/c1ccncc1)C1=NS(=O)(=O)c2ccccc21 = -11%
GLA inh pH 4.5, CN1CCN(S(=O)(=O)c2ccc(N)cc2)CC1 = 5
Rango dissoc inh, CCCn1c(C2CC(=O)N(c3ccc(C)cc3)C2)nc2ccccc21 (stereo not given) = 11%
miR-21 reporter, Cc1nc(C)c2c(=O)cc(-c3ccccc3)[nH]c2n1 = 16%
Rango complex inh, CCN(CC(=O)NCc1cccs1)C(=O)c1cccc(Cl)c1 = -3.0%
Rango dissoc inh, COc1ccccc1C(=O)NCCCNC(=O)c1cnccn1 = 2%

Compound activity: PubChem, National Center for Advancing Translational Sciences (NCATS)

Some of the compounds tested. The share of hits here may be higher or lower than overall.
